TRPV1 PAM: enhances activation of the human vanilloid receptor TRPV1. Q8NER1. TRPV1-expressing cells, Fluo-8 calcium influx, capsaicin EC20 potentiation; host cell line not named in the record; control for the full effect not named in the record. potentiation, % at 8.33 µM. actives 0.02% (n = 320,000). AID 540277; active means potentiation above 80%; inconclusive means 30% to 80%; inactive means below 30%; further: 0% is about no effect
Target sequence (Q8NER1 whole entry, looked up): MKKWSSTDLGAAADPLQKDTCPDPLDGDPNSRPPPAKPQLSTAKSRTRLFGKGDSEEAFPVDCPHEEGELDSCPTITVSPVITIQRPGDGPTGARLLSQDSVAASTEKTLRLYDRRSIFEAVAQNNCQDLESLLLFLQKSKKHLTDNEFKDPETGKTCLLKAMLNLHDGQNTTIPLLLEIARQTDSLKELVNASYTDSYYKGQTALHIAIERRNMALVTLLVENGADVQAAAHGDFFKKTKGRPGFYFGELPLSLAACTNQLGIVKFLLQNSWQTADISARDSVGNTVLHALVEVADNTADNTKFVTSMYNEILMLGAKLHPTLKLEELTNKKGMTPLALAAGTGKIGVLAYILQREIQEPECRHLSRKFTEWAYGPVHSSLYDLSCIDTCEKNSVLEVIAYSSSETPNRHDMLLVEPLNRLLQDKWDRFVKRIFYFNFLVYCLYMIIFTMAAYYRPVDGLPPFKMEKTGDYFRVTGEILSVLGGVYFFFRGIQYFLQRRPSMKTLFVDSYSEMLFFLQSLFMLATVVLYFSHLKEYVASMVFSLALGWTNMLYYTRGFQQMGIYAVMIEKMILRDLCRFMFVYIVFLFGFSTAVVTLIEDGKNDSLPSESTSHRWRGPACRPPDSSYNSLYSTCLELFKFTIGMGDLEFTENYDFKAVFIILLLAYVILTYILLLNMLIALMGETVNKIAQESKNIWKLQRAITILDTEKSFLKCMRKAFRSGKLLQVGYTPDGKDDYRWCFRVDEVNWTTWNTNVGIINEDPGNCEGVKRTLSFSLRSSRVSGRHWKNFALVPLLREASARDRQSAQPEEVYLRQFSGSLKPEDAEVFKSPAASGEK
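Fluo-8 calcium influx in TRPV1-expressing cells, kinetic read (ex 480/em 520 nm). Compound added and read 3 min for agonist activity, followed by capsaicin at EC20 final and 2 min further read for enhancement.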
ClpP mod: qHTS Assay for Activators of ClpP | ATP-dependent Clp protease proteolytic subunit (Bacillus subtilis (strain 168)), P80244 | purified B. subtilis ClpP, FRET peptide cleavage, 20 min | Potency, µM (titrated, usually from 57.5 µM), for the others: at the highest dose activity change, negative = active | actives 1.9% (n = 340,000) | AID 651965, 2013; active = well fitted falling curve with a large enough effect; inconclusive = small, poorly fitted or top-dose-only effect; inactive = no such curve, though single readings can be large or run the other way; further: potency means the concentration at half of the fitted maximal effect; the source files actives as falling curves though it sought activators and does not explain the sign; nearly all actives have a fitted effect of over 65% in size; many hits overshoot -100%
Target sequence (P80244 whole entry, looked up): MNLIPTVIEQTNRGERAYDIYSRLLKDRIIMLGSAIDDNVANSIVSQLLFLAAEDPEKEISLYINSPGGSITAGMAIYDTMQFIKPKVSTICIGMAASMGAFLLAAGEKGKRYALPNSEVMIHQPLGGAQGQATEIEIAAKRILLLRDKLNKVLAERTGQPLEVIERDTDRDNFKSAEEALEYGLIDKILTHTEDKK
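Buffer: 100 mM Tris/HCl pH8, 100 mM KCl, 0.05% low protease BSA, 2.5% glycerol, 0.01% Tween-20. ClpP 10 microg/mL final; 20 min RT; delta FRET normalized to ADEP and DMSO controls.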
Sfp inh: Sfp phosphopantetheinyl transferase inhibition. Biochemical Sfp PPTase activity, qHTS. AID 1490. Potency, µM, for the others: max response, negative = inhibition, most hits filed as inhibitors. Q9F4F7. actives 3.5% (n = 310,000); active means well fitted inhibition curve with a large enough effect; inconclusive means small, poorly fitted or top-dose-only effect, or another doubt; inactive means no such curve, though single readings can be large or run the other way;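 further: the enzyme is Sfp with the accession as filed and its product quenches rhodamine fluorescence; potency means the concentration at half of the fitted maximal effect; 0% = enzyme reaction without inhibitor and -100% = no enzyme wells; top concentration of the series not given in the record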
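After 15 min at room temperature with compound, 15 nM Sfp received 5 uM rhodamine-CoA plus 12.5 uM BHQ-2-ybbR (50 mM Hepes pH 7.6, 10 mM MgCl2). Rate came from the fluorescence difference over 30 min, ex 525/em 598 nm.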
PINK1 modulator: changes PINK1 expression. PINK1 immunofluorescence, high-content cytometry, 24 h. Potency, µM (titrated, usually from 76.6 µM), inactives show top-dose activation (PINK1 increase), usual class: activators. actives 0.2% (n = 410,000). AID 624263; active = well fitted activation curve with a large enough effect; inconclusive = small, poorly fitted or top-dose-only effect; inactive = flat fitted curve, though single readings scatter; cell line not stated here;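 further: potency means the concentration at half of the fitted maximal effect; % of control where 0% means no effect; nearly all actives have a fitted effect of over 65% in size; a mitochondrial uncoupler was the plate control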
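PINK1 protein level read as immunofluorescence by microplate cytometer in a fixed, stained stable cell line after 24 h exposure to five compound concentrations, with CCCP as control.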
TRPML1 ag: activates the human TRPML1 channel | Q9GZU1 | TRPML1-expressing cells, Ca2+ dye fluorescence, FDSS; host cell line not named in the record; reference of the full effect not given here | activation, % (concentration not given with the values) | actives 0.12% (n = 410,000) | AID 624414; in the data active = activation above about 50%; inconclusive = about 30% to 50%; inactive = below about 30%; further: 0% is about no effect; the text of the record puts the active cut at 80%
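Tet-induced TRPML1-DL cells, 1,500 per well, cultured overnight, were loaded with a no-wash Ca2+ dye for 45–90 min. Calcium fluorescence was recorded on the FDSS for 110 s after compound addition, before the EC80 agonist (4 uM 54-4) was added.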
TRPML1 blocker: blocks the human TRPML1 channel; activity change, negative = inhibition, % (test concentration not listed); actives 0.02% (n = 390,000); TRPML1-inducible cells, Ca2+ dye fluorescence, FDSS; active compounds read low; inhibition of EC80 agonist-evoked calcium signal; in the data active means activity change below about -50%; inconclusive means about -30% to -50%; inactive means above about -30%;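 further: stimulus is agonist 54-4 at its EC80 concentration; on the % scale 0 is the no-effect control and ±100 the full control effect; compound concentration not given in the record; the text of the record puts the active cut at -80%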
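Tet-induced TRPML1-DL cells loaded with Ca8 no-wash calcium dye were read kinetically on FDSS. Compound addition was followed by EC80 agonist 54-4 (4 uM final); inhibition was read over 110 s.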
Menin MLL FP FL: displaces fluorescein MLL peptide from human menin; Fluorescence polarization, fluorescein-MLL peptide displacement from menin; FP activity change, % at 61.4 µM; 290,000 tested, under 10 active; inconclusive = falling polarisation curve, or a change in total fluorescence; inactive = total fluorescence flat and polarisation flat or rising; no compound was filed as active; the % refers to the polarisation; negative = inhibition;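 further: % of control where 0% means no effect; inhibitors lower the polarisation; unlabelled MLL peptide was the positive control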
Active calls of the source: *; ? = inconclusive; / = no result given; & = joins results of further samples; [ ] = another dose, or the depositor's remark.

SMILES	TRPV1 PAM	ClpP mod	Sfp inh	PINK1 modulator	TRPML1 ag	TRPML1 blocker	Menin MLL FP FL
Cc1csc(SC(C)C(=O)Nc2ccccc2C)n1 (configuration not stated)	-18.6	2.0%	/	1.8%	0.4	-10.2	/
COC(=O)c1cccc(NC(=O)CC2C(=O)NCCN2C(=O)Nc2ccccc2)c1 (configuration not stated)	12.1	1.0%	4.1%	3.2%	-0.3	-2.9	/
Cc1ccc(Cn2nnc3c(=O)n(CC(=O)N4CCCCC4)cnc32)cc1	0.4	0.6%	17.7%	3.8%[38.3 µM]	0.1	-6.2	6.9
COc1ccc(C(C)NC(=O)c2ccc(Br)cc2)cc1OC (configuration not stated)	-24.6	-1.9%	-23.7%	1.9%	0.5	?	-2.1
C=CCn1c(=O)n(C(=O)OCC)c2cc(Br)ccc21	-0.9	/	-8.5%	-0.9%	1.2	-0.9	-3.0
CCOC(=O)c1ccc(N2C(=O)c3[nH]nc(-c4ccc(C)cc4)c3C2c2cccc(F)c2)cc1 (configuration not stated)	/	-9.3%	/	25.1%	0.2	-7.6	/
N/C(Cc1ccc(Cl)cc1Cl)=N\OC(=O)c1ccccc1	3.5	1.1%	10.8%	-0.9%	0.5	12.3	2.0
O=C(CCCn1c(=S)[nH]c2cc3c(cc2c1=O)OCO3)N1CCN(c2ncccn2)CC1	-14.1	1.5%	-17.9%	0.9%[38.3 µM]	1.6	-1.8	0.8
COc1ccccc1C(=O)NC(=O)COC(=O)C1CC1C (configuration not stated)	-8.7	-21.4%	/	-0.2%	-0.1	9.2	/
CC[C@H](C)C1NC(=O)[C@H](CC(=O)O)NC(=O)c2cc([N+](=O)[O-])cc(I)c2NCCC(C(N)=O)NC1=O (some centres not stated)	7.9	1.3%	21.0%	1.0%	-0.6	-6.2	-2.1
CCc1c(C)nc(SCC(=O)NNC(=O)c2ccco2)[nH]c1=O	-10.7	-3.3%	10.6%	-0.2%	0.1	26.9	/
CCOCCCNC(=O)c1cc2c(=O)n(CC)c3ccccc3c2s1	-20.7	3.8%	1.0%	10.3%	/	/	0.5
O=C1CC(c2ccco2)=Nc2ccccc2N1	-20.9	0.1%	50.1µM*	-1.2%[38.3 µM]	-0.1	-4.7	1.9
CCOC(=O)c1ccccc1NS(=O)(=O)c1ccc(OC)cc1	29.3	-3.1%	7.0%	6.4%	-0.5	18.2	-1.7
CCC(CC)NC(=O)c1cc(S(=O)(=O)N2CCCCC2)ccc1N1CCOCC1	-24.2	-8.3%	/	4.8%	-1.2	7.7	/
CCOc1ccc(C(=O)c2cc([N+](=O)[O-])ccc2Cl)cc1	-7.3	-1.5%	3.1%	7.2%	2.9	43.5	-1.1
CCOc1ccc(C(=O)Nc2cccc(C(=O)O)c2C)cc1Cl	0.3	-25.5%	?	-1.0%	0.6	1.9	10.2
COc1cccc(CNC(=O)C(NS(=O)(=O)c2cccs2)C(C)C)c1 (configuration not stated)	/	-0.2%	/	-0.1%	-0.3	-26.9	/
Cc1ccccc1S(=O)Cc1ccc(C(=O)NCCN2CCOCC2)o1 (configuration not stated)	-13.4	1.4%	19.1%	1.9%	0.0	21.1	/
CCCN1C2CCCC1CC(NC(=S)Nc1ccc(OC)cc1)C2 (configuration not stated)	16.2	1.1%	-12.0%	-1.0%	0.1	8.8	0.0
O=C(c1ccc2nc[nH]c2c1)N1CCN(c2ncc(C(F)(F)F)cc2Cl)CC1	11.1	-3.9%	8.9%	2.0%	1.2	24.2	-2.3
O=S(=O)(Nc1nc2ccccc2nc1Cl)c1ccc2c(c1)OCCO2	11.7	/	-3.7%	4.9%	0.2	3.6	3.3
COC(=O)c1ccc(NC(=O)CNc2ccccc2)cc1	14.4	/	4.4%	0.2%	-0.8	7.1	-1.0
O=C(NCc1ccncc1)C1CCCN(S(=O)(=O)c2ccc(Br)cc2)C1 (configuration not stated)	-23.7	-20.7%	7.7%	-1.0%	0.2	11.6	1.1
COc1cccc(/C=C2\N=C(SC)SC2=O)c1OC	-6.9	-1.5%	-3.3%	3.8%	0.9	-4.7	0.9
COc1cc2cccc(OC)c(=O)c2c(OC)c1OC	28.9	0.4%	?	0.5%	/	/	0.3
CCN(C[C@H]1N[C@@](Cc2ccccc2)(C(=O)OC)[C@H]2C(=O)N(C)C(=O)[C@@H]12)C(=O)Nc1ccc(F)cc1	/	-0.5%	/	-0.2%	-0.7	-0.2	/
CCOC(=O)c1ccc(CNC(=O)Cn2nnc(-c3ccccc3)n2)o1	-4.4	0.4%	10.5%	4.6%	0.6	3.1	1.3
COc1ccc(CS(=O)c2nc(C)cc(C)c2S(C)(=O)=O)cc1 (configuration not stated)	16.1	/	-0.4%	-1.1%	0.6	-0.8	3.6
CCOc1ccc(NCc2cccn2-c2nnc(N3CCC(C(=O)NCc4ccc(C)cc4)CC3)s2)cc1	/	-3.4%	/	0.4%	1.5	2.0	/
Cc1c(C(=O)Nc2ccc(C(=O)O)cc2)nnn1-c1ccccc1	/	-0.9%	/	2.4%	1.4	5.2	/
O=C1Nc2ccccc2C1Cc1ccccc1 (configuration not stated)	-8.5	0.7%	-12.3%	3.2%	0.2	12.1	5.3
CC(C)N1CCC(N2CCN(CCCn3cccn3)CC2CCO)CC1 (configuration not stated)	5.1	1.4%	-1.7%	-0.2%	0.0	6.0	-0.9
CCC(=O)Oc1ccc2c(C)cc(=O)oc2c1C(=O)CC	-4.5	/	-0.4%	0.4%	-0.2	-21.2	-0.3
NC(=O)Cn1nc(-c2ccccc2)nc1-c1ccccc1	/	1.5%	/	-1.4%	-0.4	-0.6	/
COc1ccc(C(=O)Oc2ccc(/C=N/NC(=O)c3cccnc3)cc2OC)cc1	7.2	9.6%	/	1.8%	0.5	3.2	/
CC(C)Nc1ncnc2c1cnn2-c1ccccc1	-10.8	-20.5%	15.8%	-0.8%	-0.2	-1.1	1.1
CCC(=O)N1CCc2cc(Br)cc(S(=O)(=O)CCC(=O)NCCc3ccc(C)cc3)c21	/	1.0%	/	-1.6%	2.2	-25.6	/
COc1cn(-c2ccccc2)nc1C(=O)Nc1ccc(C)cc1Cl	-15.4	/	-24.4%	8.7%	-0.1	3.9	0.1
COc1ccc2c(=O)c(OC)c(-c3ccccc3)oc2c1	/	/	?	-1.4%	/	/	3.6
CCOc1ccc(NC(=O)CCNS(=O)(=O)c2ccc(Br)s2)cc1	18.3	-2.9%	17.5%	/	1.7	4.8	3.3
COc1cc(NC(=O)CN2C(=O)COc3ccc(S(=O)(=O)N4CCCCC4)cc32)cc(OC)c1	-0.4	-0.3%&0.2%	14.4%	2.3%&0.7%	-1.3&2.2	-6.7&-11.7	2.6
CC(=O)N1CCN(c2ccc(Oc3ccc([N+](=O)[O-])c(C(F)(F)F)c3)cc2)CC1	24.8	/	-11.0%	0.6%	2.0	-2.3	0.5
COC(=O)Cn1cc(C(=O)c2cccs2)c2ccccc21	-7.5	0.7%	0.9%	-1.9%	0.0	-8.4	-4.3
Cc1ccc(S(=O)(=O)c2c(N)n(CCCO)c3nc4ccccc4nc23)cc1	-6.4	29.2%	-7.7%	2.4%	-0.9	18.1	1.2
CC1CCCN(S(=O)(=O)c2cccc(C(=O)NCc3ccco3)c2)C1 (configuration not stated)	-15.1	0.2%	/	-1.1%	-0.7	-12.1	/
O=C(O)c1cnc(-c2ccccc2)nc1-c1ccccc1	-3.4	/	29.1%	0.4%	0.4	17.4	-0.8
COc1ccc(Cn2nnnc2C(c2cccs2)N2CCN(c3ccc([N+](=O)[O-])cc3)CC2)cc1 (configuration not stated)	-2.8	?	15.5%	-0.3%	0.8	16.2	1.7
Cc1ccc(S(=O)(=O)Nc2cc3c(C(=O)OCc4ccccc4)c(C)oc3c3ccccc23)c(C)c1	/	-2.4%	/	-0.3%	0.0	37.2	/
CCN(CC1CCCO1)C(=O)CCc1nnc(CCc2ccccc2)o1 (configuration not stated)	/	-1.1%	/	2.2%	-0.4	4.8	/
COc1cccc(OC)c1C(=O)N1CCN(Cc2ccccc2C(F)(F)F)CC1	-5.8	31.6µM*	?	1.5%	-0.4	15.0	4.3
C[C@@H]1CN([C@@H](C)CO)C(=O)CCCn2nncc2CO[C@H]1CN(C)S(=O)(=O)c1ccc(C#N)cc1	/	-1.9%	/	0.6%	0.3	-9.1	/
CC1=C(C#N)C(C)C2=C(CC(C)(C)CC2=O)N1 (configuration not stated)	-6.7	17.8µM*	8.2%	1.6%	-0.6	-1.9	3.5
Cn1c(=O)[nH]c(=O)c2c1nc(SCCN1CCCCC1)n2Cc1ccccc1	-1.5	1.3%	15.9%	-2.4%	0.9	4.1	1.6
O=C(CNCc1ccc(Cl)cc1)Nc1cc(S(=O)(=O)N2CCCC2)ccc1Cl	/	0.6%	/	3.1%	2.7	25.3	/
O=c1[nH]nc(SCCS(=O)(=O)c2ccc(F)cc2)n1-c1ccccc1C(F)(F)F	9.3	/	4.8%	-1.5%	0.6	5.7	3.2
Cn1nnnc1SCc1ccc(C(=O)Nc2ccccc2F)cc1	-18.5	-0.6%	-2.3%	3.4%	0.8	-8.3	1.1
CC(=O)c1cccc(S(=O)(=O)N2CCC(C(=O)O)CC2)c1	-9.5	-2.0%	18.9%	-1.1%	3.5	15.9	1.8
COc1ccccc1NS(=O)(=O)c1cc([N+](=O)[O-])ccc1N/N=C/c1c[nH]c2ccccc12	2.9	2.7%	-8.9%	17.1%	22.7	16.8	?
O=C(Nc1ccncc1)c1ccc(Cl)cc1	-6.3	-0.1%	11.2%	-3.6%	2.7	2.9	1.0
Cc1cccn2c(CNCC(C)Oc3cccnc3)c(C(=O)N3CCOCC3)nc12 (configuration not stated)	-2.2	-1.7%	12.0%	0.2%	0.0	3.6	1.0
COc1ccccc1-c1nc(NCCNC(C)=O)c2ccccc2n1	/	/	-0.6%	-0.6%	/	/	-6.8
COC(=O)c1c[nH]n2c(=O)c(Cc3ccc(F)cc3Cl)c(C)nc12	17.9	-10.6%	-5.9%	2.8%[38.3 µM]	0.8	7.4	1.2

Complete entries from above.
`CC1=C(C#N)C(C)C2=C(CC(C)(C)CC2=O)N1` (configuration not stated) is listed as TRPV1 PAM: -6.7; ClpP mod: 17.8µM*; Sfp inh: 8.2%; PINK1 modulator: 1.6%; TRPML1 ag: -0.6; TRPML1 blocker: -1.9; Menin MLL FP FL: 3.5
`Cc1ccc(S(=O)(=O)Nc2cc3c(C(=O)OCc4ccccc4)c(C)oc3c3ccccc23)c(C)c1` is listed as TRPV1 PAM: /; ClpP mod: -2.4%; Sfp inh: /; PINK1 modulator: -0.3%; TRPML1 ag: 0.0; TRPML1 blocker: 37.2; Menin MLL FP FL: /

Compound activity as filed in PubChem BioAssay.
